RecA intein inh: blocks M. tuberculosis RecA intein splicing | hit rate 0.75% among 290,000 | inhibition, %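 (about 9 µM by stock and volumes)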 | cell-free RecA intein splicing, fluorescence | AID 2221 | P9WHJ3; in the data active = inhibition above about 30%; inconclusive = no clear call, values can overlap the other calls;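 note: 0% = vehicle wells and 100% = reference inhibitor control wells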
Target sequence (P9WHJ3 whole entry, looked up): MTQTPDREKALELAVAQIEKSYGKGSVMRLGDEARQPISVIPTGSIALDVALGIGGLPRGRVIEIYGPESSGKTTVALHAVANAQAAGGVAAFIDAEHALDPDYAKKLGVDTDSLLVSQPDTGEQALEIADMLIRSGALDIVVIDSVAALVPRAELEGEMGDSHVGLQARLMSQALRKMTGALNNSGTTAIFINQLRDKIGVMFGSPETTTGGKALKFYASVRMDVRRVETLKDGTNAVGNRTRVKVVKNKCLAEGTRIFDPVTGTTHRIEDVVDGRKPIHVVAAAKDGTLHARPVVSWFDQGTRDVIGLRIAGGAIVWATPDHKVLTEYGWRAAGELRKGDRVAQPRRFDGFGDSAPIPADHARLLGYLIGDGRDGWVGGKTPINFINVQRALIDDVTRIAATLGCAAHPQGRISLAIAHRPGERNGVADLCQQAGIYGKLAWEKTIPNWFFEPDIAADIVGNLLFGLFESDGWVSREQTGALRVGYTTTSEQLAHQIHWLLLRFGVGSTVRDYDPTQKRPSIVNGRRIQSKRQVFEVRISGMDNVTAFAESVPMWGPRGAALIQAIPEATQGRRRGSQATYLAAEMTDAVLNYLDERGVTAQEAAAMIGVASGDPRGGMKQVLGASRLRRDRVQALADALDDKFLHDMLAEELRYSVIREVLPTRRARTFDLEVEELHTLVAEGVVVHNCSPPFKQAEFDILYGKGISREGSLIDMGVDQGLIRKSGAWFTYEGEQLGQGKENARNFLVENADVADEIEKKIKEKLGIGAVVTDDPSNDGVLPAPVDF
Mtb H37Rv: M. tuberculosis H37Rv growth inhibitors, H37Rv strain (AID 1626) | inhibition, % at 10 µM; hits with a dose series show IC50 in µM | hit rate 0.95% among 220,000 | M. tuberculosis H37Rv growth inhibition; higher % means a stronger effect;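 active = confirmed in a dose series; inconclusive = inhibition above 80% but not taken into the dose series; inactive = below 80% or under 30% at every dose of the series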;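 note: bacteria incubated seven days before Alamar blue readout; 0% = bacteria only wells and 100% = bacteria with antibiotic wells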
Arbovirus anti: antivirals against arbovirus infection; arbovirus infection cell-based antiviral screen; inhibition, % at 10 µM; hit rate 0.37% among 200,000;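 active = inhibition from about 30%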;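 note: bluetongue infection of BSR cells; cell survival read as ATP light after 72 h; 0% = infected wells without compound and 100% = uninfected wells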
Arbovirus anti repeat: recorded beside Arbovirus anti, whose call it bears; inhibition, %; measured here: 10K subset replicate screen; many hits read low in the repeat;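 first of two repeat runs on a subset; 0% = infected and 100% = uninfected wells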
* = called active by the depositor; u = inconclusive; x = not tested or not shown. The list is partial; count on the stated rates, not on these rows.

SMILES	RecA intein inh	Mtb H37Rv	Arbovirus anti	others
CCOC(=O)c1sc2nc(NC(=O)c3cccs3)sc2c1C	x	x	3	Arbovirus anti repeat=13
N#CC1=C(c2ccccc2)N=P(N2CCOCC2)(N2CCOCC2)N=C1N1CCOCC1	x	x	8	Arbovirus anti repeat=2
CC(=O)c1sc(N2C(=O)c3oc4ccccc4c(=O)c3C2c2ccc(C)o2)nc1C (stereo not given)	x	x	1	Arbovirus anti repeat=2
CCn1nc(-c2cccs2)nc2c(=O)n(C)c(=O)nc1-2	x	x	-43
Cc1cccn2c(=O)c3cc(C(=O)NCCCN4CCOCC4)n(C)c3nc12	x	x	1	Arbovirus anti repeat=0
COc1ccc(C2c3c(oc4ccc(F)cc4c3=O)C(=O)N2CCN2CCOCC2)cc1OC (stereo not given)	x	x	13	Arbovirus anti repeat=2
CCN(CC)CC(=O)Nc1cc(C)c2c(=O)oc3ccccc3c2n1	x	x	-4	Arbovirus anti repeat=5
Cc1nnc(SCCn2c(N3CCN(c4ccccc4)CC3)nc3c2c(=O)n(C)c(=O)n3C)s1	x	x	4	Arbovirus anti repeat=0
COc1ccccc1N1CCN(CC(=O)Nc2cc(C)nn2-c2nc(C)cc(C)n2)CC1	x	x	-14	Arbovirus anti repeat=-11
Cn1c(=O)c2c(SCC(=O)N3CCC(Cc4ccccc4)CC3)nc(C3CC3)nc2n(C)c1=O	x	x	-7	Arbovirus anti repeat=-7
CCOC(=O)N1CCC(NC(=O)C(NC(=O)C2CCCCC2)C(C)C)CC1 (stereo not given)	x	x	5	Arbovirus anti repeat=1
Cn1c(C(=O)N2CCN(c3ccc(F)cc3)CC2)cc2c(=O)n(C)c3ccccc3c21	x	x	7	Arbovirus anti repeat=-2
CCOC(=O)/C=C(\C)Sc1cc(O)c2ccccc2c1O	x	u	x
Oc1ccccc1-c1cc(C(F)(F)F)[nH]n1	x	-8%	x
O=C(Nc1ccc(F)c([N+](=O)[O-])c1)c1ccc2c(c1)C(=O)OC2=O	x	-10%	x
C=CCNC(=S)Nc1ccc(OC(=O)Nc2ccc(Cl)c(Cl)c2)cc1	x	u	x
CCn1cc(C(=O)O)c(=O)c2cc(F)c(N3CCN(C(=S)NC(=O)c4ccccc4C)CC3)cc21	x	71%	x
CC(C)CN1C(=O)/C(=C/c2c(N3CCc4ccccc4C3)nc3ccccn3c2=O)SC1=S	x	4%	x
N#CC(C#N)=Cc1ccc(C=C(C#N)C#N)cc1	x	4%	x
Cc1onc(-c2c(Cl)cccc2Cl)c1-c1nc2cc(Cl)ccc2c(=O)o1	x	-6%	x
O=C(O)c1ccc(-c2ccc(/C=C3\NC(=O)N(Cc4ccc(Cl)cc4)C3=O)o2)cc1	x	8%	x
Cc1ccnn1CC(=O)N/N=C/c1ccc([N+](=O)[O-])s1	x	-10%	x
CN1CCC2(CC1)NC(=O)c1ccccc1N2	x	-12%	x
CN(C)c1ccc(/C=C(\C#N)c2ccccc2)cc1	x	7%	x
Cn1cc(NC(=O)c2cc(NC(=O)c3cc(NC=O)cn3C)cn2C)cc1C(=O)NCCC(=N)N	x	-7%	x
O=C(CSc1nc2ccc([N+](=O)[O-])cc2s1)c1ccc2ccccc2c1	x	-10%	x
COc1ccc(C2=CC3=C(Br)C(=O)C(C)(OC(=O)c4cnc5ccccc5n4)C(=O)C3=CO2)cc1 (stereo not given)	x	-7%	x
CCCCNC(=O)C(c1ccc(OCC(=O)OC)c(C(=O)OC)c1)N(CCc1ccccc1)C(=O)CCCCCN1C(=O)NC(c2ccc(-c3ccccc3)cc2)C(C(=O)OCc2ccccc2)=C1C (stereo not given)	x	3%	x
CCC(=O)NC1=C(Cl)C(=O)C(NC(=O)CC)=C(Cl)C1=O	x	6%	x
CCOc1ccc(NC(=O)CSc2nc(NS(=O)(=O)c3ccc(C)cc3)cc(=O)[nH]2)cc1	-0.6	x	x
O=C(COC(=O)c1ccc(Cl)cc1[N+](=O)[O-])NNC(=O)c1cccs1	1.6	x	x
CCOCCCN(C(=O)c1ccco1)C(C(=O)NC1CCCC1)c1ccc(OC)cc1 (stereo not given)	0.6	x	x
COC(=O)Cn1c(=O)c2c(nc3n2CC(C)CN3CCc2ccccc2)n(C)c1=O (stereo not given)	0.4	x	x
CCOc1ccccc1NC(=O)N1CCC(NC(=O)C2CCCCC2)CC1	3.1	x	x
O=c1c(-c2ccc(Br)cc2)coc2c(CN3CCCCC3)c(O)ccc12	-1.5	x	x
COC(=O)/C(C#N)=C/c1c(N2CCCCCC2)nc2c(C)cccn2c1=O	2.5	x	x
Cc1nnc(C)c2c(C)n(-c3ccccc3)c(C)c12	-7.1	x	x
Cc1ccc(NC(=O)C(C)Sc2nnc(C)n2CC2CCCO2)cc1 (stereo not given)	1.2	x	x
COc1ccc(OCC(=O)Nc2ccc(S(=O)(=O)N(C)c3ccccc3)cc2)cc1	-0.2	x	x
Cc1cccc(OCC(=O)Nc2ccc(NC(=O)c3ccco3)cc2)c1	0.2	x	x

Sorted by molecular weight (high to low): 22 of the compounds above.
SMILES	RecA intein inh	Mtb H37Rv	Arbovirus anti	others
CCCCNC(=O)C(c1ccc(OCC(=O)OC)c(C(=O)OC)c1)N(CCc1ccccc1)C(=O)CCCCCN1C(=O)NC(c2ccc(-c3ccccc3)cc2)C(C(=O)OCc2ccccc2)=C1C (stereo not given)	x	3%	x
COc1ccc(C2=CC3=C(Br)C(=O)C(C)(OC(=O)c4cnc5ccccc5n4)C(=O)C3=CO2)cc1 (stereo not given)	x	-7%	x
CCn1cc(C(=O)O)c(=O)c2cc(F)c(N3CCN(C(=S)NC(=O)c4ccccc4C)CC3)cc21	x	71%	x
Cn1cc(NC(=O)c2cc(NC(=O)c3cc(NC=O)cn3C)cn2C)cc1C(=O)NCCC(=N)N	x	-7%	x
CC(C)CN1C(=O)/C(=C/c2c(N3CCc4ccccc4C3)nc3ccccn3c2=O)SC1=S	x	4%	x
CCOc1ccc(NC(=O)CSc2nc(NS(=O)(=O)c3ccc(C)cc3)cc(=O)[nH]2)cc1	-0.6	x	x
O=C(O)c1ccc(-c2ccc(/C=C3\NC(=O)N(Cc4ccc(Cl)cc4)C3=O)o2)cc1	x	8%	x
O=c1c(-c2ccc(Br)cc2)coc2c(CN3CCCCC3)c(O)ccc12	-1.5	x	x
COC(=O)Cn1c(=O)c2c(nc3n2CC(C)CN3CCc2ccccc2)n(C)c1=O (stereo not given)	0.4	x	x
Cc1onc(-c2c(Cl)cccc2Cl)c1-c1nc2cc(Cl)ccc2c(=O)o1	x	-6%	x
C=CCNC(=S)Nc1ccc(OC(=O)Nc2ccc(Cl)c(Cl)c2)cc1	x	u	x
O=C(COC(=O)c1ccc(Cl)cc1[N+](=O)[O-])NNC(=O)c1cccs1	1.6	x	x
O=C(CSc1nc2ccc([N+](=O)[O-])cc2s1)c1ccc2ccccc2c1	x	-10%	x
CCOc1ccccc1NC(=O)N1CCC(NC(=O)C2CCCCC2)CC1	3.1	x	x
COC(=O)/C(C#N)=C/c1c(N2CCCCCC2)nc2c(C)cccn2c1=O	2.5	x	x
Cc1ccc(NC(=O)C(C)Sc2nnc(C)n2CC2CCCO2)cc1 (stereo not given)	1.2	x	x
Cc1cccc(OCC(=O)Nc2ccc(NC(=O)c3ccco3)cc2)c1	0.2	x	x
CCC(=O)NC1=C(Cl)C(=O)C(NC(=O)CC)=C(Cl)C1=O	x	6%	x
Cc1ccnn1CC(=O)N/N=C/c1ccc([N+](=O)[O-])s1	x	-10%	x
CN(C)c1ccc(/C=C(\C#N)c2ccccc2)cc1	x	7%	x
CN1CCC2(CC1)NC(=O)c1ccccc1N2	x	-12%	x
N#CC(C#N)=Cc1ccc(C=C(C#N)C#N)cc1	x	4%	x

(more compounds)
SMILES	RecA intein inh	Mtb H37Rv	Arbovirus anti	others
Cc1c(-c2ccccc2)cnc2c(C)cccc12	3.1	x	x
COc1cc2c(cc1OC)C(c1ccccc1)N(C(=O)C(C)(C)C)CC2 (stereo not given)	2.6	x	x
CCc1cccc(CC)c1NC(=O)CNCc1cccs1	2.8	x	x
O=C(C1=C(O)C(=O)N(CCN2CCOCC2)C1c1cccc(O)c1)c1cc2ccccc2o1 (stereo not given)	-2.6	x	x
Cc1c(OCC(=O)N[C@@H](CSCc2ccccc2)C(=O)O)ccc2c3c(c(=O)oc12)CCC3	10	x	x
CNC(=O)c1cc(S(=O)(=O)NC2CCCCCC2)ccc1C	1.2	x	x
O=C1CCC(C(=O)N2CCCO2)CN1Cc1cccc(C(F)(F)F)c1 (stereo not given)	2.0	x	x
CCCCOc1ccc(C(=O)Oc2cccnc2)cc1	1.2	x	x
O=C(Nc1cccc(-n2cccn2)c1)C1CCCN(Cc2cc3ccccc3[nH]2)C1 (stereo not given)	1.6	x	x
COc1cccc(NC(=O)C2CC2)c1	0.0	x	x
CCOc1ccc(N(C(=O)c2snc(C(N)=O)c2N)C(C(=O)NCC2CCCO2)c2ccc(C)o2)cc1 (stereo not given)	1.6	x	x
O=C(O)c1cccc(CSc2nnc(-c3cccnc3)o2)c1	-3.1	x	x
COc1cc(C(=S)N2CCOCC2)ccc1OC(=O)c1ccc([N+](=O)[O-])cc1[N+](=O)[O-]	3.6	x	x
CCCCC(=O)N1CCN(c2nc(-c3ccc(F)cc3)cs2)CC1	0.0	x	x
O=C(N/N=C/c1cccc2ccccc12)c1cc2ccccc2o1	1.3	x	x
Cn1ccnc1SCC(=O)Nc1ccc([N+](=O)[O-])cn1	-6.1	x	x
Cc1cc(NC(=O)COc2ccc(C(C)(C)C)cc2)no1	1.5	x	x
CCc1cc2c(=O)oc(-c3ccc(Br)cc3)nc2s1	-0.9	x	x
CC(NC(=O)CSc1ncn[nH]1)c1ccc(Cl)cc1Cl (stereo not given)	1.8	x	x
CC(C)(C)c1ccc(C(=O)C2CCCN(C(=O)c3ccccn3)C2)cc1 (stereo not given)	-0.2	x	x
Cc1ccc(S(=O)(=O)N(Cc2cccc([N+](=O)[O-])c2)C(=O)N2CCN(C)CC2)cc1	1.5	x	x
O=C(CCCn1nnnc1CN1CCOCC1)N1CCC(c2ccccc2F)C1 (stereo not given)	0.9	x	x
CCCC(C(=O)NC1CCCC1)N(C(=O)Cn1nnc(-c2ccc(C)o2)n1)c1ccccc1F (stereo not given)	2.5	x	x
CCn1cc(C(=O)NN)c(=O)c2cc(F)c(N3CCCCC3)cc21	5.4	x	x
CCc1nn(C(CC)C(=O)NCC(C)c2ccccc2)c(=O)c2cc3occc3n12 (stereo not given)	5.0	x	x
C=C(C)CSc1nc2sc3c(c2c(=O)n1-c1ccc(C)cc1)CCN(C)C3	-1.3	x	x
COc1cccc(OC)c1NC(=O)C1CCCN1C(=O)Nc1ccccc1Cl (stereo not given)	0.8	x	x
COC(=O)C(NC(=S)N1CC2C[C@@H](C1)Cn1c2cccc1=O)C(C)C (stereo not given in full)	-1.4	x	x
CC1CCCC(C)N1C(=O)CSc1nnnn1C1CCCC1 (stereo not given)	0.6	x	x
C=CCn1c(=O)c(C(=O)Nc2ccccc2C)c(O)c2ccccc21	0.5	x	x
O=c1c2cn(Cc3ccc(F)cc3)c3ccc(F)cc3c-2nn1Cc1ccc(F)cc1	0.0	x	x
COc1ccc(NC(=O)COc2cccc3c2CCNC3=O)cc1	1.4	x	x
CSCC(=O)Nc1ccc(F)c(Cl)c1	-2.0	x	x
CCC(NC(=O)c1cc(COc2ccc(F)c(F)c2)on1)c1ccncc1 (stereo not given)	-0.3	x	x
CCOC(=O)c1ccc(C(=O)NNC(=O)C2CC=CCC2)cc1 (stereo not given)	1.8	x	x
Cc1ccc(/C=N/NC(=O)c2cc(-c3ccncc3)nc3ccccc23)o1	-0.4	x	x
Cc1cccc(C)c1NC(=O)C1CC2CCC1C2 (stereo not given)	-0.7	x	x
COc1ccc(N(CC(=O)NC2CCCC2)C(=O)Cn2nnc(-c3ccc(C)o3)n2)c(OC)c1	-1.3	x	x
Cc1cc(NC(=O)c2c(Br)cnn2C)no1	-1.2	x	x
CCS(=O)(=O)N1CCC(NC(=O)C(Cc2cccc(OC)c2OC)NC(C)=O)CC1 (stereo not given)	7.5	x	x
Cc1ccc(-c2nnn(CC(=O)N(CC(=O)NC3CCCC3)c3ccccc3F)n2)o1	-1.1	x	x
CCCCn1c2ccc(F)cc2c2nnc(SCCN3CCCCC3)nc21	0.5	x	x
CCCN1CCc2c(sc3nc(SCC)n(-c4ccccc4)c(=O)c23)C1	-1.0	x	x
COC(=O)c1cc(CNC(=O)CCCSc2ccccc2)ccc1OC	3.8	x	x
Cc1cccc(NC(=O)c2ccc3c(c2)OCCO3)c1	1.9	x	x
Fc1ccc(CNCC2CCCO2)cc1 (stereo not given)	-1.3	x	x
COc1cccc(CC(NC(C)=O)C(=O)NC2CCN(C(=O)Nc3ccc(C)cc3)CC2)c1 (stereo not given)	0.3	x	x
C/C(=N/Nc1ccccc1[N+](=O)[O-])c1ccc(C)c([N+](=O)[O-])c1	-0.6	x	x
COc1ccc(C(=O)c2ccc(-c3ccc(OC)cc3)nc2)cc1	0.8	x	x
COc1cccc(NC(=O)c2ccc3c(c2)OCCO3)c1	2.9	x	x
CCOc1ccc(N(CC(=O)NCc2ccco2)C(=O)CCC(=O)Nc2ccccn2)cc1	0.8	x	x
COc1ccc(OC)c(NC(=O)CS(=O)(=O)Cc2ccccc2)c1	3.1	x	x
CCc1ccc(S(=O)(=O)N/N=C\c2cn(CC(N)=O)c3ccccc23)cc1	-5.7	x	x
Cc1ccc(C)c(N2CCN(CC3CCCCC3)CC2)c1	-1.8	x	x
